# Bioassay records from PubChem.
# VACV mCherry inh – qHTS for Stage-Specific Inhibitors of Vaccinia Orthopoxvirus: mCherry Reporter Primary qHTS; 0.63% of 310,000 active; AID 720579, 2013; Vaccinia virus mCherry reporter infection, fluorescence; about a quarter of the inactives have no number; Potency, µM (titrated, usually from 36.5 µM), for inactives: top-dose activity change, negative = inhibition, actives largely listed as inhibitors; active = well fitted inhibition curve with a large enough effect; inconclusive = small, poorly fitted or top-dose-only effect; inactive = no such curve, though single readings can be large or run the other way; tested in A549 cells; also: nearly all actives have a fitted effect of over 35% in size; inactives centre near -10
# VACV Venus inh – qHTS for Stage-Specific Inhibitors of Vaccinia Orthopoxvirus: Venus Reporter Primary qHTS; Vaccinia virus Venus reporter expression, fluorescence; Potency, µM (top dose mostly 36.5 µM), for inactives: at the highest dose activity change, negative = inhibition, hits mostly inhibitors; 0.46% of 330,000 active; active means well fitted inhibition curve with a large enough effect; inconclusive means small, poorly fitted or top-dose-only effect; inactive means no such curve, though single readings can be large or run the other way; tested in A549 cells; also: nearly all actives have a fitted effect of over 30% in size; inactives centre near -10
# Starred values were filed as active, the others as inactive; i = inactive; ? = inconclusive; · = not tested or not shown; [ ] = remark or other dose. % is scaled to controls: 0 for no effect and ±100 for the full control effect; potency is read from the fitted curve at half-maximal effect.
Compound | VACV mCherry inh | VACV Venus inh
Cn1ncc(C(N)=O)c1NC(=S)NC(=O)c1ccc(Br)o1 | i | -10%
CC1CC(C)CN(S(=O)(=O)c2ccc(C(=O)N3CC(C)OC(C)C3)cc2)C1 (stereo unspecified) | i | -13%
Cc1cccc(C)c1NC(=O)CCCCCC1NC(=O)NC1C (stereo unspecified) | i | 2%
C#CCOCCOCCOCCNc1nc(N2CCN(C(=O)[C@H](CCCCN)n3cc([C@@H](N)CC(C)C)nn3)CC2)nc(N2CCN(C(=O)[C@H](Cc3ccc(O)cc3)n3cc([C@@H](N)CC(C)C)nn3)CC2)n1 | -18% | -5%
Cc1oc2nc(SCC(=O)N3CCCCC3)nc(N)c2c1C | -20% | -9%
CC1CCC(NC(=O)c2cc(S(=O)(=O)N3CCCCC3)ccc2N2CCOCC2)CC1 (stereo unspecified) | -6% | -13%
C=CCn1c(Cc2cccc3ccccc23)n[nH]c1=S | -14% | -14%
CCN1CCN(C(=O)c2cc(COc3c(C)cccc3C)on2)CC1 | i | -12%
ClC1=CN(C2=NCCC2)CC1 | 2% | -5%
Cc1cccc(C)c1NC(=O)CCCN1C(=O)CCn2nc(-c3cn(C)c4ccccc34)cc21 | -16% | -4%
COc1ccc(-c2ccccc2NC(=O)C2CCCN(Cc3ccco3)C2)cc1 (stereo unspecified) | -15% | -10%
COc1ccc(CCNC2CC(=O)N(C3CCCCC3)C2=O)cc1OC (stereo unspecified) | -1% | -3%
CC(C(=O)OCC(=O)c1cccc([N+](=O)[O-])c1)N1C(=O)C2C3C=CC(C3)C2C1=O (stereo unspecified) | i | 7%
COc1c(C)cc(Br)cc1C(=O)Nc1cccc(-c2nc3ncccc3o2)c1 | -23% | ?
O=C(CNC(=S)N(CCCN1CCOCC1)Cc1cccs1)NC1CCCC1 | i | -12%
Cc1c(C(=O)N(Cc2nccn2C)C(C)C)oc2c(F)cccc12 | -7% | -10%
CC(C)(C)N1OC2CC1c1nc3ccccc3n1C2 (stereo unspecified) | i | -3%
CCC(C(=O)NCc1ccccc1)n1c(-c2ccc3c(c2)CCO3)nc2ccccc21 (stereo unspecified) | -4% | -10%
CCN1CCN(c2cc3nc(C)n(Cc4ccccc4)c(=O)c3cc2NC(=O)c2ccccc2F)CC1 | -15% | ?
COc1ccc(CN(CC2CCCO2)C(=O)c2cc3ccccc3oc2=O)cc1 (stereo unspecified) | -15% | -11%
Cc1cc(NC(=O)c2cc(C(C)C)on2)no1 | -18% | -11%
S=C(NCCc1ccccc1)NCC1CCCO1 (stereo unspecified) | -7% | -6%
COc1cccc(N=CNc2cccc(OC)c2)c1 | -14% | -8%
CCOc1ccc(OCCC(=O)N2CCN(S(=O)(=O)c3ccc(OCC)cc3)CC2)cc1 | i | -11%
CCOc1ccc(C(Nc2ccc(C)cc2)P2(=O)OCCC(C)O2)cc1 (stereo unspecified) | · | -12%
O=C(C[n+]1cc(-c2ccccc2)n2c1CCC2)Nc1nc(-c2ccc(F)cc2)cs1 | i | -9%
O=C1NN(c2ccccc2)C(=O)/C1=C\c1cccc(OC(=O)c2cccs2)c1 | · | -8%
O=S(=O)(NC1C2CC3CC(C2)CC1C3)c1ccc(F)cc1 (stereo unspecified) | i | -13%
O=C(c1ccc(Cl)cc1)N1CCC(O)(CSc2ccc(Cl)cc2Cl)CC1 | · | ?
CCCNC(=O)c1ccc(Cn2c(=O)c3cccn3c3cccnc32)cc1 | -13% | -5%

# Whole records from above:
# Shown for `CC(C)(C)N1OC2CC1c1nc3ccccc3n1C2` (stereo unspecified) → VACV mCherry inh: i; VACV Venus inh: -3%
# Shown for `Cc1c(C(=O)N(Cc2nccn2C)C(C)C)oc2c(F)cccc12` → VACV mCherry inh: -7%; VACV Venus inh: -10%

# Further structures
Compound | VACV mCherry inh | VACV Venus inh
CCCCC(=O)N(C)c1c(CC)nc2c(OCc3ccc(C(F)(F)F)cc3)cccn12 | -13% | -30%
COc1cc(CCC(=O)OCC(=O)Nc2ccccc2OC(F)F)cc(OC)c1OC | 2% | 1%
COc1cc(O)c(C(CCN2CCCC(C)C2)c2cc(OC)c(OC)c(OC)c2)c(OC)c1 (stereo unspecified) | 19% | -12%
CC[C@@H]1CC=C[C@H]2[C@H]1C(=O)N(Cc1ccccc1)[C@H]2c1ccc(OC)c(Cl)c1 | -16% | -10%
CC1CCCCN1C(=O)Cn1c(=O)n(C2CCCCC2)c(=O)c2ccccc21 (stereo unspecified) | · | -5%
O=C(NCC1(N2CCOCC2)CCCCCC1)c1cnn(-c2nccc(-c3ccco3)n2)c1C1CC1 | -8% | -2%
O=C(Cc1ccc2c(c1)OCCO2)c1c(O)cc(O)cc1O | i | -22%
CCc1ccc(NS(=O)(=O)c2cc3c4c(c2)CCN4C(=O)CC3)cc1 | -1% | -19%
COc1ccc(S(=O)(=O)N2CCN(c3ccccc3OC)CC2)cc1 | i | 3%
CCn1c(SCC(=O)N2CCCC(C)C2)nc2c1c(=O)n(C)c(=O)n2C (stereo unspecified) | -11% | -16%
C(/CCc1ccccc1)=N\n1cnnc1 | -5% | -2%
O=C(O)c1ccccc1P(=O)(c1ccccc1)c1ccccc1 | i | -11%
O=C(c1ccc(F)cc1)n1nc(-c2cccnc2)nc1NCc1ccc(F)cc1 | -10% | -5%
NC(=O)c1ccc(NCc2ccco2)c([N+](=O)[O-])c1 | · | -8%
O=S(=O)(c1ccc(Cl)cc1)N1CCC2(CC1)CO2 | -5% | -14%
O=C(CN(Cc1ccccc1)C(=O)c1cccc([N+](=O)[O-])c1)Nc1c(Cl)cc(Cl)cc1Cl | -11% | -5%
O=C(C[n+]1ccccc1)N/N=C/c1cc(Br)cc(Br)c1O | -20% | -13%
Cc1cc(C)nc(-n2nc(C)c3c(C(F)(F)F)cc(=O)[nH]c32)n1 | -30% | -14%
O=C1[C@H](Oc2ccccc2)[C@@H](c2ccncc2)N1c1ccncc1 | -7% | -8%
COc1ccc(-n2ncc3c(N4CCN(c5cccc(C)c5)C(C)C4)ncnc32)cc1 (stereo unspecified) | ? | ?
C/C(CCc1ccc2c(c1)OCO2)=N\N=C1\NC(=O)CC(C(=O)Nc2ccccc2F)S1 (stereo unspecified) | -4% | -7%
O=C(O)CCCCCNc1nc2ncn(Cc3ccccc3)c2c(=O)[nH]1 | i | -4%
Cc1sc(NC(=O)C2c3ccccc3Oc3ccccc32)c(C(=O)OC(C)C)c1C | -6% | 0%
O=C(NCCCn1ccnc1)/C(=C/c1ccc(F)cc1)NC(=O)c1ccccc1 | -4% | -5%
COc1ccc(NC(=O)CC2NCCNC2=O)c(OC)c1 (stereo unspecified) | 4% | -1%
O=c1oc2c(CN3CCOCC3)c(O)ccc2c2ccccc12 | · | -13%
Cc1ccc(-n2cc(CNCCc3ncc(C)[nH]3)c(-c3ccc(F)cc3)n2)cc1 | ? | ?
COc1ccccc1OC(C)C(=O)Nc1ccccc1C(=O)NCC1CCCO1 (stereo unspecified) | i | -17%
Cc1ccc(CN2CCSc3ccc(C(=O)NCc4ccc(OC(C)C)cc4)cc32)cc1 | -16% | -10%
O=C(O)c1c2c(nc3ccc(S(=O)(=O)N4CCC(C(=O)NC5CCCC5)CC4)cc13)CCCCC2 | -15% | -13%

# An excerpt of these results, with each value named.
NC(=O)c1ccc(NCc2ccco2)c([N+](=O)[O-])c1
  VACV mCherry inh: · | VACV Venus inh: -8%
O=S(=O)(c1ccc(Cl)cc1)N1CCC2(CC1)CO2
  VACV mCherry inh: -5% | VACV Venus inh: -14%

# (cont.)
Compound | VACV mCherry inh | VACV Venus inh
S=C(NCCCN1CCOCC1)NC1CCCC1 | -6% | 4%
Clc1cccc(-n2ncc3c(N4CCC(Cc5ccccc5)CC4)ncnc32)c1 | -2% | 12%
CCN(CCNC(=O)C1CCCN(S(=O)(=O)c2cnc[nH]2)C1)c1ccccc1 (stereo unspecified) | 25% | -6%
Oc1ccccc1/C=N/Nc1ccnc(SCc2ccccc2)n1 | ? | ?
COc1ccc(-c2cc(C(=O)Oc3ccc(C)c(C)c3)c3ccccc3n2)cc1 | -10% | -6%
Cc1nc(N)[nH]c(=O)c1CCCNc1ccc(CCC2(CCl)OCCO2)cc1 | -1% | -11%
COc1ccc(CN2C(=O)CCC2(C)c2nnnn2-c2ccc3c(c2)OCCO3)cc1 (stereo unspecified) | -5% | -3%
CCCCNC(=O)COC(=O)c1cc(S(=O)(=O)N2CCCCCC2)ccc1OC | -10% | -1%
CC[C@]12c3[nH]c4ccccc4c3CCN1C(=O)C(CC(=O)NCc1cccc(C(F)(F)F)c1)C[C@@H]2C(=O)N1CCN(C(=O)c2ccco2)CC1 (stereo partly specified) | ? | ?
Cc1ccc(C)c(NC(=O)n2ncc3cc(Cl)ccc32)c1 | 6% | -11%
CCCCOc1ccc(-c2nnn(CC(=O)Nc3ncc(CC(=O)OCC)s3)n2)cc1 | -10% | -9%
Cc1ccc(CN2C(=O)C(CC(C)C)Nc3ncnc(N4CCN(c5ccccc5)CC4)c32)cc1 (stereo unspecified) | ? | ?
O=C(NC1CC(=O)N(c2ccccc2)C1)c1cc2ccccc2o1 (stereo unspecified) | -1%[7.34 µM] | -1%[7.34 µM]
CCOC(=O)c1ccc(NC(=O)CC2S/C(=N/N=C/c3c[nH]c4ccccc34)NC2=O)cc1 (stereo unspecified) | ? | -23%
CC(CCc1ccc(O)cc1)NCCC(c1ccccc1)c1ccccc1 (stereo unspecified) | ? | -17%
CC1(C(=O)NS(=O)(=O)c2ccccc2C(F)(F)F)CCN1C(=O)CCC1CCCC1 (stereo unspecified) | 49%[activator] | -5%
Cn1c(SCCS(=O)(=O)c2ccc(Cl)cc2)nnc1-c1ccccc1 | · | ?
CC(C)(C)NC(=O)c1cccc(NC(=O)CSc2ccc(Cl)cc2)c1 | i | -22%
O=C(NCCc1nnc2n1CCN(Cc1ccsc1)CC2)c1ccc(F)cc1 | -20% | -7%
CCOc1cc(/C=C2\SC(=Nc3ccccc3)N(c3ccccc3)C2=O)ccc1OCC(=O)O | -12% | -6%
Cc1cc(N2CCN(C(c3ccnc4ccccc34)c3nnnn3-c3c(C)cccc3C)CC2)c2ccccc2n1 (stereo unspecified) | -5% | -22%
Cc1cc2c(cc1C)-c1nnnn1C(N1CCC(Cc3ccccc3)CC1)C(=O)N2 (stereo unspecified) | ? | ?
COc1ccc(Oc2nccc(OC)c2C#N)cc1 | -6% | 9%
NC(=O)COc1ccc2oc(-c3ccccc3)cc(=O)c2c1 | i | -4%
Cc1cc(C)n2cc(CSc3ncn[nH]3)nc2n1 | i | -18%
O=C(Oc1ccccc1F)c1nc(SCc2ccccc2F)ncc1Cl | -7% | 2%
Cc1ccc2c(C(=O)N3CCN(c4ccccc4)CC3)cc(-c3cccnc3)nc2c1C | -24% | -27%
COc1ccc(S(=O)(=O)n2nc(-n3c(C)ccc3C)c3c(F)cccc32)cc1OC | -20% | -18%
C#CCOCCOCCOCCNc1nc(N2CCN(C(=O)C([C@@H](C)O)n3cc([C@@H](N)CCCCN)nn3)CC2)nc(N2CCN(C(=O)[C@H](CO)n3cc([C@@H](N)C(C)C)nn3)CC2)n1 (stereo partly specified) | i | -2%
COc1ccc(/C=C/c2c(-c3ccc(OC)cc3)sc3ccc(N4CCOCC4)cc23)cc1 | ? | -10%

# 2 entries drawn at random from the list so far, as already listed:
Compound | VACV mCherry inh | VACV Venus inh
Cc1cc(N2CCN(C(c3ccnc4ccccc34)c3nnnn3-c3c(C)cccc3C)CC2)c2ccccc2n1 (stereo unspecified) | -5% | -22%
Cn1c(SCCS(=O)(=O)c2ccc(Cl)cc2)nnc1-c1ccccc1 | · | ?

# More results follow.
Compound | VACV mCherry inh | VACV Venus inh
CCc1ccc(-n2nc(C)c3c2NC(=O)CSC3c2ccccc2C)cc1 (stereo unspecified) | ? | -12%
CCc1nn2c(=O)cc(COC(=O)c3ccc(SC)cc3OC)nc2s1 | 12% | -2%
COC(=O)c1ccc(CSc2ccc3nnc(-c4ccccc4)n3n2)o1 | i | -15%
O=C(c1ccc(OC2CCN(Cc3ccccn3)CC2)cc1)N1CCCCCC1 | -11% | -9%
O=C1CC(C(=O)Nc2ccc(Cl)cc2)n2ncnc2N1 (stereo unspecified) | 4% | 0%
O=S(=O)(Nc1ccc(N=Nc2ccccc2)cc1)c1ccccc1 | -27% | -19%
CCOC(=O)c1c(S(=O)(=O)N2CCCC(C(=O)NCc3ccccc3Cl)C2)c(C)n(C)c1C (stereo unspecified) | -13% | -17%
COc1ccc(C(=O)N(Cc2nc(-c3ccc(C)cc3)no2)C(C)C)cc1OC | i | -26%
COc1ccc(NS(=O)(=O)c2cccc(C(=O)NCC(c3ccco3)N3CCCCC3)c2)cc1 (stereo unspecified) | ? | -14%
Cc1ccc(/C=C/C(=O)Nc2sc(C)c(C)c2C(=O)OC(C)C)o1 | -13% | -4%
COc1cccc(N(CC(=O)NC2CCCCC2)C(=O)CCC(=O)Nc2nccs2)c1 | -20% | -7%
COC(=O)c1sc2ccccc2c1-n1cccc1C(=O)C(=O)Nc1ccc(C)cc1 | · | ?
C(CCCN1CCCCC1)CCN1CCCCC1 | -8% | -8%
